# Source: PubChem (National Center for Advancing Translational Sciences (NCATS))
# NPR1 antag: blocks ANP-stimulated signaling of human Npr1 receptor. 1.6% of 76,000 active. HEK293 hNpr1 GloSensor cGMP, ANP-stimulated luminescence. AID 1347048. Potency, µM (highest dose often 46.3 µM), inactives show at the top dose activity change, negative = inhibition, actives largely listed as inhibitors. P16066; active = well fitted inhibition curve with a large enough effect; inconclusive = small, poorly fitted or top-dose-only effect; inactive = no such curve, though single readings can be large or run the other way;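 further: nearly all actives have a fitted effect of over 60% in size; nearly all hits also lower the signal before the agonist is added; a reference antagonist and vehicle were the controls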
# Target sequence (P16066 whole entry, looked up): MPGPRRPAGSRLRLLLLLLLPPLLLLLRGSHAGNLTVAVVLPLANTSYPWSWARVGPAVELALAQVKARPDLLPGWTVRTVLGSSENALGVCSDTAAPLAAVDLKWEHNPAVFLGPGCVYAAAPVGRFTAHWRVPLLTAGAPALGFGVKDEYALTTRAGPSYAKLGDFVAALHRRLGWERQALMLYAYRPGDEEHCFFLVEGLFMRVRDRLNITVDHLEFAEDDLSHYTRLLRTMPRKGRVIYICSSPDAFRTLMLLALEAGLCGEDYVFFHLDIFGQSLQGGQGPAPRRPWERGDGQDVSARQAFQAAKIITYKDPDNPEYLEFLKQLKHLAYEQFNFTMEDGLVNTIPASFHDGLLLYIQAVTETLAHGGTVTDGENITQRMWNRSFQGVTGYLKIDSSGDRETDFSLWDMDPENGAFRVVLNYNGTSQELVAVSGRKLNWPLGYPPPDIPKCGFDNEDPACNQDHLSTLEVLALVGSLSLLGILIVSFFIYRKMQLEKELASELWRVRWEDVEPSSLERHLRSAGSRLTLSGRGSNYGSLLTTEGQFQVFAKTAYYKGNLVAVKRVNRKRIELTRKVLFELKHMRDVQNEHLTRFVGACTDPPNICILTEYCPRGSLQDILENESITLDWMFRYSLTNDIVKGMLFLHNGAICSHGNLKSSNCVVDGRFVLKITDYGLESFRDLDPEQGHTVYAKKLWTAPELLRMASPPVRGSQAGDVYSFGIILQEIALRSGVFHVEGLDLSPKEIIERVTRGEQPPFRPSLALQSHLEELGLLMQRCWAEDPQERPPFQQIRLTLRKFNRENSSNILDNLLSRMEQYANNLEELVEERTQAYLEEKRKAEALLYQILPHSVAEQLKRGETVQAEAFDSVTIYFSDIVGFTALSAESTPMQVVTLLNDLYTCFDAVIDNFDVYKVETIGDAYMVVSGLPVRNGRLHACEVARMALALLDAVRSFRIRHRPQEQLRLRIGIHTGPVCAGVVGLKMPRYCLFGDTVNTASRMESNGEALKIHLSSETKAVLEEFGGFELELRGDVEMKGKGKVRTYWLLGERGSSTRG
#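 HEK293 cells stably expressing human Npr1 and cGMP GloSensor pGS-40F, loaded 2 h with 2% GloSensor reagent, given compound 30 min at room temperature. Luminescence read before and 20 min after 0.1 nM hNppA.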
# The depositor's hits bear a star; ? = inconclusive; [ ] = remark or other dose. On the % scale 0 is the no-effect control and ±100 the full control effect; potency means the concentration at half of the fitted maximal effect. An excerpt; the hit share may differ from the screen's.
SMILES,NPR1 antag
COc1ccc(-n2nc(C3CCN(C(=O)c4ccccc4Cl)CC3)[nH]c2=O)cc1,-9%
O=C(N[C@H]1CCN2C(=O)c3ccc(Cl)cc3NC(=O)[C@H]12)c1cccs1,1%[70.6 µM]
N#Cc1ccc(-c2c(-c3ccccc3)ncn2CCNc2cccnc2)cc1,-28%
CCOC(=O)CCNC(=O)N1CCCC(c2nc(C(C)C)no2)CCNC(=O)CC1 (stereo not drawn),1%
O=C(CC1CCCN(c2cnn(CC3CC3)c(=O)c2)C1)NCc1ccccc1 (stereo not drawn),-10%
CC1(C(=O)NC2CCOCC2)CCc2cnc(Nc3ccccc3)nc21 (stereo not drawn),0%[70.6 µM]
CC(C)C(=O)N1CCc2ccc(C(=O)NC3CC3)cc21,6%
CC(=O)N1CCN(c2nc3ncccc3o2)CC1,4%[70.6 µM]
Cc1ccc(NC(=O)CCn2ccn3nc4c(c3c2=O)CCCC4)cc1,-2%
COC(=O)c1cccc(-c2nccn2CC(O)c2ccccc2)c1 (stereo not drawn),1%
Nc1nc(C2CC(NC(=O)c3cnn(Cc4ccccc4)c3)C2)cc(=O)[nH]1 (stereo not drawn),4%
N#Cc1cccc(C(=O)N2CC(F)(F)C[C@H]2c2nc(C3CC3)no2)c1,4%
CN(Cc1cccn1C)S(C)(=O)=O,0%[70.6 µM]
O=C(CC1CCN(C(=O)Nc2ccccc2)C1)NC1CC1 (stereo not drawn),-13%
COc1ccc(-c2nnc(C[C@@H]3C[C@@H](C(C)C)[C@H](CNCc4ccco4)C=C3C)o2)cc1,?
COc1ccccc1-c1cc2c(nc1-c1ccccc1)nc(C(=O)NCCN(C)C)n2C,?
Cc1cccc(NC(=O)N2CC(C(=O)N(C)C)C3(CCOCC3)C2)c1 (stereo not drawn),-1%
O=C1N(CC2CCOCC2)CCOC12CCN([S+](=O)([O-])c1ccccc1)CC2,-1%[70.6 µM]
CCC(=O)C(=O)NCc1cc2c(nc1OC)CN(CCc1ccccn1)C2=O,0%
CCOc1ccccc1C1NC(=O)N(CC(=O)Nc2ccc(C)cc2)C2=C1C(=O)OC2 (stereo not drawn),-7%
COCC(=O)N[C@@H]1CCC[C@@H](C(=O)NC2CC2)CC(=O)N(C)C1,-2%[70.6 µM]
CCCn1nc2c(c1C)C(c1ccc(OCC(N)=O)c(Cl)c1)CC(=O)N2 (stereo not drawn),0%
O=C(CCc1c[nH]c2ccccc12)N1CCC(N2C(=O)C(O)C23CCCCC3)CC1 (stereo not drawn),5%
Cc1ccc([C@@H]2CN(C(=O)CN3CCOC3=O)C[C@H]2NC(=O)C2CC2)cc1,4%
O=C1NCCCCCCN(Cc2ccncc2)[C@@H]2CN(C(=O)Nc3ccccc3)CC[C@@H]12,-5%
# (more compounds)
SMILES,NPR1 antag
CCC(=O)Nc1ccc(C2(C(=O)NC(C)C)CCC2)cc1,3%
O=C([C@@H]1C[C@H](Oc2ccccc2)CN1C(=O)CCCc1ccccc1)N1CCOCC1,5%
O=C(NC[C@H]1OC[C@@H](NC2COC2)[C@@H]1O)c1ccncc1,2%[70.6 µM]
O=C(CCc1nc2ccccc2s1)N1CCN(C(=O)c2ccco2)CC1,-2%
Cc1ccc(F)cc1-n1nc(-c2c(C)nc3scc(CC(=O)N4CCOCC4)n3c2=O)cc1C,2%
Cc1noc(-c2cn(C3CCN(C(=O)Cc4ccc(Br)cc4)CC3)nn2)n1,3%
COC[C@@H]1CN(C(=O)c2occc2C)C[C@H]1c1ccncc1,-3%
COc1ncc(-c2n[nH]c3c2CC(=O)N(c2ccccc2)C3)cn1,-3%[70.6 µM]
CCC(CC)C(=O)N1CC[C@@H](CC(=O)O)[C@@H](CC2=NCCc3ccc(C)cc32)C1,-5%[70.6 µM]
Cn1cc([C@@H](NC(=O)c2ccc3c(c2)CCCC3)C2CC(O)C2)cn1 (stereo partly drawn),-2%
Cc1ccc(C2Cn3nnc(C(=O)N4CCN(C(=O)c5ccccc5)CC4)c3CO2)cc1 (stereo not drawn),-16%
COc1ccc(C(=O)N[C@@H]2CCC[C@@H]2C(=O)N2CCOCC2)cc1,0%
O=C1COc2ccc(Nc3ccc(Cl)cc3)nc2CN1Cc1nc2ccccc2s1,?
CN(C)S(=O)(=O)N1CCCN(S(=O)(=O)c2ccccc2)CCC(=O)NCC1,-5%
CCc1cc(=O)n(CC(=O)NCc2ccc(OC)c(OC)c2)c(N2CCOCC2)n1,1%
COCCCN1CC2(CCN(C(=O)CCCc3cccs3)CC2)CC1=O,-1%
O=C(NC1CCN(c2cc(-c3cccs3)[nH]n2)C1)c1cccc2[nH]ccc12 (stereo not drawn),-16%
O=C1Nc2ccc(-c3ccccc3F)cc2C(=O)N2C[C@H](O)C[C@@H]12,-3%[70.6 µM]
CCC(CC)NC(=O)CC1CCCN(c2cn[nH]c(=O)c2)C1 (stereo not drawn),9%
Cc1nc(C(C)C)sc1C(=O)N1C[C@@H](C)[C@](O)(C2CCC2)C1,-17%
COc1ccc(-c2noc(-c3cccn3CC(=O)Nc3cccc(Cl)c3C)n2)cc1F,1%
O=C(Nc1ccc([C@@H](O)[C@H]2COCC(=O)N2Cc2ccccn2)cc1)c1cnccn1,2%[70.6 µM]
CC(c1cccs1)N(C)Cc1ccncc1 (stereo not drawn),27%[70.6 µM]
Cc1[nH]ncc1CNC(=O)CCC1CCCN(S(=O)(=O)c2cccc(F)c2)C1 (stereo not drawn),3%
CCc1nc2c(c(-c3ccc(Cl)cc3)n1)CN(C(=O)c1ccc(C(F)(F)F)cc1)CC2,5%

# Six successive compounds already listed, quoted:
SMILES,NPR1 antag
Cc1ccc(NC(=O)CCn2ccn3nc4c(c3c2=O)CCCC4)cc1,-2%
COC(=O)c1cccc(-c2nccn2CC(O)c2ccccc2)c1 (stereo not drawn),1%
Nc1nc(C2CC(NC(=O)c3cnn(Cc4ccccc4)c3)C2)cc(=O)[nH]1 (stereo not drawn),4%
N#Cc1cccc(C(=O)N2CC(F)(F)C[C@H]2c2nc(C3CC3)no2)c1,4%
CN(Cc1cccn1C)S(C)(=O)=O,0%[70.6 µM]
O=C(CC1CCN(C(=O)Nc2ccccc2)C1)NC1CC1 (stereo not drawn),-13%

# Reformatted with each value named: entries from further up
CCOC(=O)CCNC(=O)N1CCCC(c2nc(C(C)C)no2)CCNC(=O)CC1 (stereo not drawn)
  NPR1 antag: 1%

O=C(CC1CCCN(c2cnn(CC3CC3)c(=O)c2)C1)NCc1ccccc1 (stereo not drawn)
  NPR1 antag: -10%

# The listing continues.
SMILES,NPR1 antag
Cc1cc(C(=O)N(CCC(=O)NCc2ccccc2)CCC(C)C)c(C)o1,?
COCc1cc(C[C@@H]2CC[C@H](O)[C@@H](CNC(=O)Nc3ccc(OC)cc3)O2)no1,6%[70.6 µM]
CN1c2cc(C(=O)NCc3ccccc3)ccc2C(=O)N2CCCCC21 (stereo not drawn),-8%
CCS(=O)(=O)Nc1ccc(C2(C(=O)N3CCN(CC(C)C)CC3)CCCCC2)cc1,4%
COc1ccc2c(C)c(C(=O)N3CC[C@H](CO)[C@@H](O)C3)oc2c1,5%
CC(=O)NC1(C)CN(Cc2ccc(-c3ccc(Oc4ccccc4)cc3)s2)C1,16µM*
CN(C)S(=O)(=O)N1C[C@@H](Oc2ccccc2)C[C@H]1C(=O)N1CCCC1,0%
C[C@@H]1CN(C(=O)c2ccc3c(c2)NC(C)(COCC2CC2)CO3)C[C@H](C)O1 (stereo partly drawn),-5%[70.6 µM]
O=C(Nc1ccc(F)cc1)N1CCC(O)(c2csc(CN3CCc4ccccc4C3)n2)CC1,?
CCCCC(=O)Nc1ccc(NC(=O)CCCN2CCCC2=O)cc1,5%
CCc1nc(CN2CCN(Cc3ccc(C)o3)C(CCO)C2)c(C)[nH]1 (stereo not drawn),3%
CC1=C[C@@H](CNC(=O)c2cnccn2)[C@H](C(C)C)C[C@H]1Cc1nc2ccccc2n1C,?
O=C1OC[C@@H]2CCN(Cc3ccccn3)Cc3ccccc3N12,6%[70.6 µM]
CCOc1ccc(-c2cc3c(=O)n(CCNC(=O)c4cccc(Cl)c4)ccn3n2)cc1,4%
O=C(Nc1ccccc1F)N1CC(Oc2ccc(-c3noc(-c4ccccc4)n3)cc2)C1,10µM*
CN1CC2(CCCN(Cc3cc4ccccc4o3)C2)OC1=O (stereo not drawn),-8%
COc1ccc(C(=O)N[C@@H]2CCC[C@@H]2C(=O)NCc2ccncc2)cc1,6%
O=C(N[C@H]1CCN2C(=O)c3cc(-c4ccsc4)ccc3NC(=O)[C@H]12)c1cccc(F)c1,-10%
Cn1ncc2c(NCCc3nnc(N)s3)nc(-c3ccncc3)nc21,10%
O=C(NC[C@H]1OC[C@@H](NC2CCCCC2)[C@@H]1O)c1ccc(F)cc1,1%[70.6 µM]
CC(C)c1noc(-c2cn(C3CCCN(C(=O)c4cccc(F)c4)C3)nn2)n1 (stereo not drawn),-24%
Cc1nnc(-c2cc(-c3ccccc3Oc3ccccc3)ccn2)n1Cc1cccnc1,0%[70.6 µM]
O=C(NCCC1CCN(C(=O)Nc2cc(F)ccc2F)CC1)c1ccc2nc[nH]c2c1,-2%
Cn1c(=O)c(C(=O)NC2CCOC3(CCOCC3)C2)nc2ccccc21 (stereo not drawn),11%
CN(Cc1ccccc1)Cc1cc(CC2(NCc3cccs3)COC2)no1,-3%[70.6 µM]
# Next section:
SMILES,NPR1 antag
O=C(O)C[C@@H]1CCN(S(=O)(=O)c2ccc(F)cc2)C[C@@H]1CC1=NCCc2cc(F)ccc21,-6%
O=C(N[C@H]1CCN2C(=O)c3cc(-c4ccccc4)ccc3NC(=O)[C@H]12)c1cccc(F)c1,-18%[70.6 µM]
CN[C@@H](CC(C)C)C(=O)N[C@@H]1C=C(C(=O)N[C@@H](Cc2ccc(O)cc2)C(N)=O)C[C@@H](O)[C@@H]1O,6%
COc1cc(-c2ccc(C)s2)cc2c1OCCN(Cc1nc[nH]c1C)C2,-8%
CCS(=O)(=O)N(C1CC1)C1CCOC2(CCN(C(=O)Nc3cccc(C)c3)CC2)C1 (stereo not drawn),1%
O=C(N1CCCC1c1nc(CCOCC2CC2)no1)C1(c2ccccc2)CC1 (stereo not drawn),3%
O=C(NC[C@H]1O[C@@H]2C[C@@H](CC(=O)N3CCOCC3)O[C@@H]2[C@@H]1O)Nc1cccnc1,5%[70.6 µM]
O=C(CCCN1C(=O)C(c2ccccc2)Oc2cccnc21)NCCc1noc(-c2ccncc2)n1 (stereo not drawn),-16%
Cc1ccc(-c2cn[nH]c2C2CCCN(C(=O)c3cnc(C)s3)C2)cc1 (stereo not drawn),2%
O=C(Cn1ccn2nc(-c3ccccc3)c(CO)c2c1=O)Nc1ccccc1,1%
O=C1NCCCCCCN(C(=O)Nc2ccccc2F)[C@H]2CCCC[C@@H]12,0%
COC[C@H]1NC(=O)CC[C@H]1C(=O)N1CCc2ccccc21,1%
CN(CC1CCOC1)S(=O)(=O)Cc1ccccc1F (stereo not drawn),-6%
CC(C)Oc1ccc(C(=O)N2[C@@H]3CC[C@H]2CC(NC(=O)c2ccc(F)cc2)C3)cc1 (stereo partly drawn),-3%
COc1ccc(NC(=O)[C@@H]2C[C@@H](c3ccc(F)cc3)N(CCOc3ccccc3)C2)cc1,?
O=C([C@@H]1C[C@H](F)CN1S(=O)(=O)c1ccc(F)c(Cl)c1)N1CCc2ccccc2C1,-1%
CCN(CC)Cc1cnc2c(C(=O)N(C)C(C)c3ccccn3)cnn2c1 (stereo not drawn),4%
COc1ccccc1CN(C)Cc1ccc(F)cc1,5%[70.6 µM]
Cc1noc2ccc(-c3ccccc3OCc3ccccc3)nc12,4%[70.6 µM]
CCN(CCn1cccn1)Cc1ccccc1OCC(O)CN1CCCCC1 (stereo not drawn),9%
COCc1noc([C@@H]2CN(C3CCCCCC3)C[C@H]2CO)n1,4%
O=C(Cc1ccccn1)N1CC(COc2ccccc2)C2(C1)CN(c1ccccc1)C2 (stereo not drawn),1%[70.6 µM]
CN1CCN(C[C@@H]2CN(C(=O)CCCc3cccs3)C[C@@H]2CO)CC1,3%
COc1cccc(CNC(=O)[C@@H]2C[C@@H](O)CN2C2CCN(C(=O)C3CCCC3)CC2)c1,3%
COc1cccc(Nc2ccc3c(n2)C(C)(C(=O)NC2CCC(O)CC2)CN(C)C3)c1 (stereo not drawn),5%[70.6 µM]

# Quoted from the listing.
# COc1ccc(C(=O)N[C@@H]2CCC[C@@H]2C(=O)N2CCOCC2)cc1 in NPR1 antag = 0%
# COc1ccc(C(=O)N[C@@H]2CCC[C@@H]2C(=O)NCc2ccncc2)cc1 in NPR1 antag = 6%
# CN1c2cc(C(=O)NCc3ccccc3)ccc2C(=O)N2CCCCC21 (stereo not drawn) in NPR1 antag = -8%
# CCc1nc(CN2CCN(Cc3ccc(C)o3)C(CCO)C2)c(C)[nH]1 (stereo not drawn) in NPR1 antag = 3%

# Further compounds follow:
SMILES,NPR1 antag
CCOCCn1nc(C)cc1C(=O)N[C@H](c1ccccn1)C1CC(O)C1 (stereo partly drawn),2%
CC1(C)C[C@H](NC(=O)c2ccccc2)[C@@]2(CCC(=O)NCCN3CCOCC3)CC[C@](C)(O)C[C@@H]12,3%
COc1ccccc1C(=O)N1CC[C@H]2COC(=O)N2c2cc(C)ccc2C1,0%[70.6 µM]
COC[C@@H]1CN(S(=O)(=O)c2c(C)noc2C)C[C@H]1c1ccncc1,3%
CN(C)c1ccc(-c2ccnc(N[C@H]3CO[C@H]4[C@@H]3OC[C@@H]4NC(=O)CSCC(=O)O)n2)cc1,1%
COc1ccc(CN2CC(Oc3ccccc3C(=O)NC3CC3)C2)c(OC)c1,-2%
COc1ccc(-c2cc3c(nc2-c2ccccc2)nc(C(=O)NCCN(C)C)n3C)cn1,3%[70.6 µM]
CCOc1ccc2c(n1)CCN(C(=O)CCc1ccccc1)C2,-5%
Cc1ccc(-c2ccc3nnc(CNC(=O)Cc4cccc(F)c4)n3n2)cc1,-11%
COc1cccc(NC(=O)Cn2c(N3CCN(c4ccccc4)CC3)nc(C)cc2=O)c1,0%
CN1C(=O)[C@H]2CC[C@@H]1CN(C(=O)CCSc1ccc3c(c1)OCCO3)C2,-2%
